# Source: PubChem BioAssay (National Center for Advancing Translational Sciences (NCATS))
# TRPML1 inh: inhibitors of human TRPML1 channel; Q9GZU1; TRPML1-inducible cells, Ca2+ dye fluorescence, FDSS; stronger effect = lower value; inhibition of EC80 agonist-evoked calcium signal; activity change, negative = inhibition, % (test concentration not listed); 390,000 tested, 0.02% active; AID 624415; in the data active means activity change below about -50%; inconclusive means about -30% to -50%; inactive means above about -30%;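 note: stimulus is agonist 54-4 at its EC80 concentration; % is set by controls: 0 for no effect and ±100 for the full control effect; compound concentration not given in the record; the text of the record puts the active cut at -80%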
# Target sequence (Q9GZU1 whole entry, looked up): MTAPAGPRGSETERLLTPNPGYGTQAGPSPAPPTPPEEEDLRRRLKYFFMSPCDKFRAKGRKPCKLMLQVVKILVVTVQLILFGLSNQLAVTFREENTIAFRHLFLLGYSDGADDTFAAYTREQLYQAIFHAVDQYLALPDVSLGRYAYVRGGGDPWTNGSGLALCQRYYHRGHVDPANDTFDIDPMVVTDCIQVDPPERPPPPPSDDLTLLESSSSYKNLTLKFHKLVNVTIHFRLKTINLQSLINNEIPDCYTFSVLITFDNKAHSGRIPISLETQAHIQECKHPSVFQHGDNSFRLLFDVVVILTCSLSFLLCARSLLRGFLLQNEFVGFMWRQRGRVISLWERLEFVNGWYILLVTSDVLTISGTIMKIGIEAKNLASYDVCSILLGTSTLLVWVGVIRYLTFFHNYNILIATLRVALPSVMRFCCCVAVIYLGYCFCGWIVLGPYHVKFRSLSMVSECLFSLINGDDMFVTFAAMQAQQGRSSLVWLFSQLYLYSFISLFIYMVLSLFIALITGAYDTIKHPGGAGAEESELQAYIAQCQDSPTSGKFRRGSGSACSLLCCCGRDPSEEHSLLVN
#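 Calcium fluorescence in TRPML1-DL cells induced overnight with Tet: a 110 s read after compound pin addition, then a 110 s antagonist read after challenge with 54-4 at 4 uM final (EC80).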
# Menin-MLL FL inh: menin-MLL binding inhibition, fluorescein peptide | FP activity change, % at 61.4 µM | Fluorescence polarization, fluorescein-MLL peptide displacement from menin | AID 1766 | 290,000 tested, under 10 active; inconclusive = falling polarisation curve, or a change in total fluorescence; inactive = total fluorescence flat and polarisation flat or rising; no compound was filed as active; the % refers to the polarisation; negative = inhibition;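 note: % of control where 0% means no effect; inhibitors lower the polarisation; unlabelled MLL peptide was the positive control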
# TRPML1 ag: activates the human TRPML1 channel; Q9GZU1; TRPML1-expressing cells, Ca2+ dye fluorescence, FDSS; host cell line not named in the record; reference of the full effect not given here; activation, % (test concentration not listed); 410,000 tested, 0.12% active; AID 624414; in the data active = activation above about 50%; inconclusive = about 30% to 50%; inactive = below about 30%; note: 0% is about no effect; the text of the record puts the active cut at 80%
#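 Tet-induced TRPML1-DL cells, 1,500 per well, cultured overnight, were loaded with a no-wash Ca2+ dye for 45–90 min. Calcium fluorescence was recorded on the FDSS for 110 s after compound addition, before the EC80 agonist (4 uM 54-4) was added.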
# gsp antag: antagonists of gsp mutant (McCune-Albright syndrome); gsp-mutant cells, cAMP HTRF, 30 min; control for the full effect not named in the record; Potency, µM (titrated, usually from 76.9 µM), for the others: at the highest dose activity change, negative = inhibition, hits mostly inhibitors; 340,000 tested, 0.4% active; AID 624288; active = falling curve of any shape with a large fitted effect; inconclusive = falling curve, mostly with a smaller effect; inactive = flat or rising curve; cell line not stated here;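 note: intracellular cAMP measured with PDE inhibitor Ro 20-1724 present during compound exposure; potency is the fitted concentration of half-maximal effect; % is set by controls: 0 for no effect and ±100 for the full control effect; nearly all actives have a fitted effect of over 65% in size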
#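 Cells in G418 medium, seeded 16-24 h, 37C; buffer exchange to DPBS + 1 mM CaCl2, 0.5 mM MgCl2, 0.05% BSA; cpds in DMSO + […] (300 uM stock), 30 min 37C; HTRF cAMP detection.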
# gsp ag: activates gsp, the McCune-Albright syndrome mutation; 340,000 tested, 0.13% active; gsp mutant cells, cAMP HTRF, 30 min; control for the full effect not named in the record; AID 624287; Potency, µM (titrated, usually from 76.9 µM), for the others: at the highest dose activation (cAMP increase), most hits filed as activators; active = well fitted activation curve with a large enough effect; inconclusive = small, poorly fitted or top-dose-only effect, or another doubt; inactive = no such curve, though single readings can be large or run the other way; cell line not stated here;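 note: phosphodiesterase inhibitor Ro 20-1724 added with compounds to block cAMP breakdown; potency is the fitted concentration of half-maximal effect; nearly all actives have a fitted effect of over 60% in size; about a fifth of the inactives were tested at one dose only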
#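 Cells stably selected in G418 were plated at 2000/well, grown 16-24 hr, then given compounds in DMSO with the PDE inhibitor […] (300 uM solution added) for 30 min at 37C; cAMP was read by HTRF.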
# ClpP mod: qHTS Assay for Activators of ClpP; ATP-dependent Clp protease proteolytic subunit (Bacillus subtilis (strain 168)), P80244; purified B. subtilis ClpP, FRET peptide cleavage, 20 min; Potency, µM (doses to about 57.5 µM), for inactives: at the top dose activity change, negative = active; 340,000 tested, 1.9% active; AID 651965, 2013; active = well fitted falling curve with a large enough effect; inconclusive = small, poorly fitted or top-dose-only effect; inactive = no such curve, though single readings can be large or run the other way; note: potency is the fitted concentration of half-maximal effect; the source files actives as falling curves though it sought activators and does not explain the sign; nearly all actives have a fitted effect of over 65% in size; many hits overshoot -100%
# Target sequence (P80244 whole entry, looked up): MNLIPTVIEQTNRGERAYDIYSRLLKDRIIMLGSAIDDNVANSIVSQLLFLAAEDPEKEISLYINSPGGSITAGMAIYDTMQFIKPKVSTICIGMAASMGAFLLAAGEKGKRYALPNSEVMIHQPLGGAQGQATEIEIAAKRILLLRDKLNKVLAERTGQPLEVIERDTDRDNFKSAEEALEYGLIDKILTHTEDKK
#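 FRET quenching reversal measured ClpP activation: 10 microg/mL B. subtilis ClpP at pH 8 with the FRET-FV decapeptide, read at 430 nm after 320 nm excitation. The 20-min minus 0-min signal was scaled between DMSO/no-enzyme wells and ADEP (5.8 microM final).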
# Starred values were filed as active, the others as inactive; ? = inconclusive; . = not tested or not shown; & = joins results of further samples; [ ] = another dose, or the depositor's remark.
SMILES,TRPML1 inh,Menin-MLL FL inh,TRPML1 ag,gsp antag,gsp ag,ClpP mod
O=C(OC(C(=O)NC1CCCCC1)c1ccc(C(F)(F)F)cc1)c1ccco1 (configuration not stated),26.9,.,-0.2,5.7%,-24.3%,0.7%
COc1ccc(S(=O)(=O)N2CCC(C(N)=O)(N3CCCCC3)CC2)cc1OC,4.1,-1.3,-0.2,3.5%,-1.5%[15.4 µM],-0.3%
NS(=O)(=O)c1cnccc1Nc1ccc(Cl)cc1,-7.8,2.7,-0.8,-13.0%,-3.5%,-10.3%
Cc1ccc(NC(=O)CCc2nc(-c3cccs3)no2)c(Br)c1,3.6,-2.1,3.7,0.1%,?,-1.3%
O=C(C1CCCC1)N1CCN(S(=O)(=O)c2ccc(F)cc2)CC1,3.5,-0.9,0.4,10.1%,-2.5%,.
Cc1cccc(OCc2nc(C#N)c(NCc3ccccc3Cl)o2)c1,0.1,.,2.0,.,.,-0.7%
Cc1cccc2c1N(CCOc1ccc(C(C)(C)C)cc1)C(=O)C2=O,-15.0,2.8,2.4,11.5%,-16.8%,?
O=C(NCCC(c1ccccc1)c1ccccc1)c1cnccn1,13.6,-0.3,2.8,2.6%,12.3%,-2.8%
C/C=C/COc1nc2c(c(=O)n(C)c(=O)n2C)n1C,-11.6,1.5,-1.0,-0.1%,0.0%,0.1%
c1ccc(-c2nc(NCC3CCCO3)c3ccccc3n2)nc1 (configuration not stated),41.9,1.9,0.0,4.5%,-51.4%[inhibitor],-1.6%
COc1ccc(C)cc1N(CC(=O)N1CCCC1)S(=O)(=O)c1ccccc1,13.9,-4.3,2.1,-5.1%,-57.9%[inhibitor],.
CCOC(=O)c1sc(NC(=O)c2ccc(Cl)s2)cc1C,2.4,5.4,-0.6,-0.7%,3.9%,-2.4%
NC(=S)NN=Cc1ccc(OC(=O)COc2cc(Cl)c(Cl)cc2Cl)cn1,13.3,.,-0.6,.,-7.4%,4.0%
CC(NC(=O)C1CCCN1C(=O)c1cccs1)c1ccc(Cl)cc1Cl (configuration not stated),-6.1,.,-0.8,.,31.2%,1.3%
O=C1CC(C(=O)N(CC2CCCO2)C(C(=O)NC2CCCCC2)c2ccncc2)CS1 (configuration not stated),2.3,-5.5,1.0,-3.0%,11.3%,-2.0%
CC(C)N(C(=O)COC(=O)c1cncc(Br)c1)C(C)C,-8.4,-1.6,-0.6,5.5%,-1.3%[15.4 µM],-4.6%
CCOC(=O)c1sc(NC(=O)C(CC)Sc2nnc3c4ccccc4n(C(C)C)c3n2)nc1C (configuration not stated),-3.5,-0.2,0.0,3.2%,-20.7%,-2.2%
CCCCC(CC(O)COCCC)c1n[nH]c(=S)n1-c1ccccc1 (configuration not stated),40.3,0.4,0.7,2.7%,-26.4%,.
COCCCn1c(C(C)C)nc2oc3cc(OC)ccc3c(=O)c2c1=O,-3.1,4.1,-0.5,-6.9%,?,-1.9%
CCC(C)c1ccc(S(=O)(=O)N2CCN(S(=O)(=O)c3ccc(NC(C)=O)cc3)CC2)cc1 (configuration not stated),-2.0,-10.6,-0.2,1.6%,0.7%[15.4 µM],.
C#CCN1C(=O)C2(OCCO2)c2ccccc21,-8.6,1.8,-0.1,3.8%,-48.6%[inhibitor],.
Cc1ccc(/C=C/C(=O)Nc2cc(=O)n(C)c(=O)n2C)o1,-5.4,5.2,0.4,13.9%,?,-26.6%
CCOC(=O)c1ccc(NC(=O)CCc2nc(-c3cccc(C)c3)no2)cc1,7.3,3.2,0.0,35.5µM*,-10.8%,1.9%
COC(=O)[C@@]1(Cc2ccccc2)[C@H]2C(=O)N(Cc3ccccc3)C(=O)[C@H]2[C@H]2CN=C(SCc3ccc(C#N)cc3)N21,53.1,.,1.4,-1.8%,.,1.2%
COc1ccc2c(c1)O[C@H](c1ccc3c(c1)OCO3)[C@@H](O)C2=O,13.1,0.2&0.4,-0.1,5.8%,14.4%,2.3%
O=S(=O)(/N=C(/Nc1cc(N2CCOCC2)ncn1)c1ccccc1)c1ccccc1,1.2,-0.5,-0.7,6.0%,4.4%,1.2%
Cc1nn(-c2ncc(C(F)(F)F)cc2Cl)c(=O)n1-c1cccc(F)c1,58.9,-1.0,0.3,13.4%,-6.2%[15.4 µM],2.1%
O=C(c1cccc(Cl)c1)N1CCN(CCCc2ccccc2)CC1,-12.9,-1.1,1.8,14.7%,?,-1.0%
O=C(/C=C/c1cccc2ccccc12)N1CCOCC1,-0.7,9.5,1.5,-6.9%,-12.6%[15.4 µM],.
CCOC(=O)Cn1nc(C)n(-c2cccc(Cl)c2)c1=O,-18.4,-0.6,0.8,3.6%,15.3%[15.4 µM],.
O=C(Nc1ccc(Cl)cc1)c1nc[nH]c1C(=O)NCCCCNC(=O)c1[nH]cnc1C(=O)Nc1ccc(Cl)cc1,3.9,.,-0.4,-6.3%,-0.5%,23.3%
COc1cc(OC)c(/C=N/NC(N)=S)cc1Br,-10.0,2.9,0.7,3.8%,26.7%,?
O=C(COc1ccccc1[N+](=O)[O-])Nc1cccc(-c2nc3ccccc3s2)c1,16.0,.,0.2,.,.,2.2%
Cc1cc(C)cc(OCCn2c(CCNC(=O)C3CCCCC3)nc3ccccc32)c1,-16.2,.,-1.0&2.5,.,.,-0.1%&-1.9%
C=CCc1cc(Cl)ccc1OCCN1CC(C)OC(C)C1 (configuration not stated),-14.5,0.1,0.2,8.0%,-7.7%[15.4 µM],0.8%
N#CC1(Nc2ccc3ccccc3c2)CCCC1,-4.5,.,-0.8,-4.1%,-3.2%,.
Oc1ccc(Cl)cc1C1=Nc2ccccc2N=C(c2ccco2)C1,-3.3,5.5,0.3,1.8%,?,-4.3%
Cc1ccc(C)n1-c1c(C(=O)NCCC(C)C)sc2ncccc12,71.2,.,2.1,.,.,3.0%
CC1CN(C(=O)Cn2cnc3c2c(=O)n(C)c(=O)n3C)CC(C)O1 (configuration not stated),-5.1,1.1,-0.3,9.5%,-2.1%,0.0%
c1ccc(CSc2nc3ncccn3n2)cc1,7.1,.,3.4,0.9%,-2.5%,-12.0%
O=C(COC(=O)/C=C/c1cccs1)NC(=O)Cc1ccccc1,14.5,7.6,0.0,3.5%,?,.
O=C(Nc1ncccc1O)c1cccc(S(=O)(=O)N2CCc3ccccc32)c1,18.7,1.2,0.8,2.8%,-98.9%[inhibitor],-0.4%
Cc1ccc(Nc2nnc(-c3ccc(N4CCOCC4)c([N+](=O)[O-])c3)c3ccccc23)cc1,20.9,3.8,-0.3,-23.6%,-4.7%[15.4 µM],.
Cc1cc(C(=O)NCc2ccc(F)cc2)c2ccccc2n1,-2.7,0.8,0.7,-0.2%,-0.1%,.
c1ccc2c(c1)CCN(c1nc3cc4c(cc3s1)OCCO4)C2,12.5,5.0,-1.0,3.4%,?,-6.7%
CC1CC=CCC1(CO)CO (configuration not stated),-9.8,.,0.0,-12.5%,14.5%,-1.7%
O=C(Cc1ccc(F)cc1)Nc1ccc(S(=O)(=O)N2CCCC2)cc1,-4.4,.,0.5,13.3%,-4.2%[15.4 µM],.
COc1ccc(CCNC(=O)CCc2ccsc2)cc1OC,26.9,-10.8,-0.5,2.9%,13.2%[15.4 µM],.
CCCCCC(=O)Nc1cccc2ccccc12,-5.8,0.0,0.3,0.8%,?,-4.5%
COC(=O)c1cc(NC(=O)CC2SC(=Nc3ccccc3)N(CCc3c[nH]c4ccccc34)C2=O)cc(C(=O)OC)c1 (configuration not stated),7.6,5.5,0.2,-19.7%,-23.4%,-0.5%
Cc1ccc(NC(=S)N=Nc2c(O)[nH]c3ccccc23)cc1,7.2,-0.1,2.4,-2.2%,5.7%[15.4 µM],.
O=C(O)Cc1sc(Nc2cccc3ccccc23)nc1-c1ccc(F)cc1,-19.3,1.7,-0.8,-27.8%,8.0%,-29.2%
O=C(Cn1c(-c2cccs2)cc2cc(Cl)ccc21)NCc1ccccc1,-3.5,.,-0.1,.,.,28.2µM*
O=C(NCC1CCCO1)c1cc(Br)c(Br)s1 (configuration not stated),-9.2,.,1.3,-6.5%,?,-2.6%
O=S(=O)(Nc1ccc(F)cc1F)c1ccc(-n2cccn2)cc1,22.1,.,-0.1,.,.,-1.5%
O=C(Oc1cccc(NC(=O)c2ccco2)c1)c1cccc(S(=O)(=O)N2CCCCC2)c1,3.4,9.2,-0.1,-6.2%,-3.8%,-4.8%
Cc1cccc(-c2nc3c4ccccc4nc(NCc4ccc(Cl)cc4)n3n2)c1,17.4,.,2.0,.,.,-5.9%
Cn1nnnc1SCC1=C(C(=O)O)N2C(=O)C(NC(=O)C3CC3c3ccccc3)C2SC1 (configuration not stated),-3.5,8.2,0.6,-3.0%,?,0.3%
Nc1ccc(O)c2c(=O)cc(-c3ccccc3Cl)oc12,29.1,0.3[94.6 µM],0.9,-6.0%,.,-0.3%
CN(CC(=O)Nc1ccc(N2CCOCC2)cc1)CC(=O)Nc1ccc([N+](=O)[O-])cc1Br,10.5,-0.9,-0.2,1.1%,32.4%,.

# (continued)
SMILES,TRPML1 inh,Menin-MLL FL inh,TRPML1 ag,gsp antag,gsp ag,ClpP mod
COc1ccc(Oc2ncnc3sccc23)cc1,-9.8,-2.1,0.7,1.3%,-7.0%[15.4 µM],.
Cc1ccc(S(=O)(=O)N(C)C)cc1NC(=O)Nc1ccccc1,-8.8,0.3,-1.0,-3.7%,-6.5%[15.4 µM],.
COc1cc(C)ccc1OCCOCCOc1c(C)cc(C)cc1Br,5.8,-4.5,2.3,-5.0%,?,0.7%
CCOC(=O)c1c(-c2cccs2)csc1NC(=O)c1ccco1,18.4,2.4,0.3,5.3%,2.8%,-19.1%
Cc1ccc(CNC(=O)C2CCC(=O)N(C3CCCC3)C2)c(F)c1F (configuration not stated),12.7,-1.1,-0.9,-6.4%,-28.7%,-2.3%
CCOc1ccc(NC(=O)N2CCC(C(N)=O)(N3CCCCC3)CC2)cc1,-4.2&10.1,5.0,0.3&0.1,-3.3%,-5.1%,-2.5%&-2.0%
CCC(C)NC(=O)c1ccc2c(c1)sc1nc(-c3ccc(OC)cc3)cn12 (configuration not stated),-0.9,.,-0.6,.,.,5.0%
CCCC1=Nc2cc(C(=O)NCCCOC(C)C)ccc2Sc2ccccc21,0.1,0.1,2.9,10.5%,-5.7%,1.6%
COc1ccccc1N1CCN(C(=O)CN(C2CCCCC2)S(C)(=O)=O)CC1,-13.0,-5.0,-0.7,-8.4%,8.9%[15.4 µM],0.7%

# Quoted from the listing.
# In TRPML1 ag, O=C(Cc1ccc(F)cc1)Nc1ccc(S(=O)(=O)N2CCCC2)cc1 is entered as 0.5
# In ClpP mod, Cc1cc(C)cc(OCCn2c(CCNC(=O)C3CCCCC3)nc3ccccc32)c1 is entered as -0.1%&-1.9%
